# Vif A3G: inhibitors of Vif binding to APOBEC3G peptide, primary screen, biochemical, TR-FRET, GST-Vif 1-94, biotin-A3G peptide, dose response retest (AID 1117319). Virion infectivity factor (Human immunodeficiency virus type 1 group M subtype B (isolate …. TR-FRET GST-Vif / biotin-A3G peptide binding; higher % means a stronger effect; test concentration not given here; strong numbers were not always called active. inhibition, %, or IC50 in µM where a hit was titrated. 0.57% of 260,000 active;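 active means above the screen mean plus three standard deviations and confirmed in dose response; inconclusive means results disagree or hit not tested in dose response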;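 further: Vif residues 1-94 fused to GST binding biotinylated APOBEC3G peptide 110-148; 0% = full assay without inhibitor and 100% = GST in place of GST-Vif; retest series ran down from 100 µM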
# FGF22 binding: binders of human FGF22 protein, primary screen, FGF22 synaptogenesis inhibitor project, biophysical, thermal shift, single point | calls only at 9.99 µM | recombinant FGF22 thermal shift, SYPRO orange fluorescence; percent of sucrose octasulfate shift, DMSO zero | 1.5% of 340,000 active;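 active means melting point raised past a set limit in the mean and every replicate; inconclusive means no clear call; three in four hits are not shown here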
# Target sequence (Q9HCT0 whole entry, looked up): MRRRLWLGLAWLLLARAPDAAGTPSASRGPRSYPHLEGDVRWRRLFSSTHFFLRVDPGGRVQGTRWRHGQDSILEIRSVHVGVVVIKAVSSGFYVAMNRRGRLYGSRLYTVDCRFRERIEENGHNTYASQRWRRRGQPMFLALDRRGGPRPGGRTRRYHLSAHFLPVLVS
# UCH37 DUB inh: inhibitors of human UCH37 deubiquitinase, primary screen, biochemical, Ub-AMC cleavage, fluorescence; 0.33% of 330,000 active; inhibition, % (concentration not given with the values); purified proteasome/UCH37; AID 588478, 2011;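 active means mean of two replicates above 20%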;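 further: 0% = compound-free wells with enzyme and 100% = wells lacking proteasome; stock transfer was 100 nL into about 20 µL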
# Target sequence (Q9Y5K5 whole entry, looked up): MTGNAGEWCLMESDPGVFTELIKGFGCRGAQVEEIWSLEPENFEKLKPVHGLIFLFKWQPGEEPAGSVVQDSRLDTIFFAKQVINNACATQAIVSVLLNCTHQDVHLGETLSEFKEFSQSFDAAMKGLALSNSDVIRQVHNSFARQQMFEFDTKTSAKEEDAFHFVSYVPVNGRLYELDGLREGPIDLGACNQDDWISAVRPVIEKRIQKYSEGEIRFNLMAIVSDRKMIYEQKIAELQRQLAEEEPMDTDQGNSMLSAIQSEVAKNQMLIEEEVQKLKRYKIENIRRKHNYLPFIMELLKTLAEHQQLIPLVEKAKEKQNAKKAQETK
#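 Assay system: Proteasome-bound UCH37. Buffer or medium: pH 7.4 Tris-HCl (50 mM) with ovalbumin, ATP-MgCl2, DTT. Incubation: 30 min preincubation with enzyme, 25 min cleavage at room temperature. Measured by: fluorescence, ex 355 nm, em 460 nm. Read-out basis: percent inhibition. Control set: wells without proteasome as full block, compound-free enzyme plus substrate as uninhibited.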
# HNF4A DNA FP: change in binding of human HNF4A to DNA, primary screen, biochemical, fluorescence polarization, FITC-DNA | Hepatocyte nuclear factor 4-alpha (Homo sapiens), P41235 | 1 h | activity change, % at 10 µM | 0.3% of 360,000 active | AID 1224865, 2016; in the data active means activity change above about 30%, passing the limit was not always enough;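 further: controls were the assay level and a saturating level of protein; the project sought stronger binding though the title names inhibitors; some compounds called inactive have numbers as strong as hits; positive values seem to mean higher polarization but the record does not say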
# RanGTP-Imp inh: inhibitors of RanGTP-importin-beta interaction, primary screen, biochemical, FRET, CFP-Ran, YFP-importin-beta, homogeneous | 1.1% of 300,000 active | Ran GTPase (GTP-bound) - importin-beta complex | AID 2216, 2009 | cell-free CFP-Ran/YFP-importin-beta FRET ratio | inhibition, % (test concentration not listed);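 active means most replicates above 15%; inconclusive means exactly half above 15%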;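 further: 0% = DMSO wells and 100% = Ran loaded with GDP instead of GTP; wells of about 40 µL received 100 nL stock; the first replicate is given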
# MLL AF4-AF9 inh: inhibitors of AF4 peptide binding to AF9, primary screen, biochemical, AlphaScreen, biotin-AF4 peptide, FLAG-AF9, single point; Protein AF-9 (Homo sapiens), P42568; inhibition, % at 10 µM; 0.47% of 350,000 active; AID 651704, 2012;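 active means every replicate reaching a set inhibition limit, whatever the replicate mean, cut at about 25% in these data; inconclusive means mean inhibition reaches that limit but some replicates miss it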;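 further: 0% = plate neutral control median and 100% = total signal loss; the record names both 10 and 1 µM as test concentration; the first replicate is given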
# Target sequence (P42568 whole entry, looked up): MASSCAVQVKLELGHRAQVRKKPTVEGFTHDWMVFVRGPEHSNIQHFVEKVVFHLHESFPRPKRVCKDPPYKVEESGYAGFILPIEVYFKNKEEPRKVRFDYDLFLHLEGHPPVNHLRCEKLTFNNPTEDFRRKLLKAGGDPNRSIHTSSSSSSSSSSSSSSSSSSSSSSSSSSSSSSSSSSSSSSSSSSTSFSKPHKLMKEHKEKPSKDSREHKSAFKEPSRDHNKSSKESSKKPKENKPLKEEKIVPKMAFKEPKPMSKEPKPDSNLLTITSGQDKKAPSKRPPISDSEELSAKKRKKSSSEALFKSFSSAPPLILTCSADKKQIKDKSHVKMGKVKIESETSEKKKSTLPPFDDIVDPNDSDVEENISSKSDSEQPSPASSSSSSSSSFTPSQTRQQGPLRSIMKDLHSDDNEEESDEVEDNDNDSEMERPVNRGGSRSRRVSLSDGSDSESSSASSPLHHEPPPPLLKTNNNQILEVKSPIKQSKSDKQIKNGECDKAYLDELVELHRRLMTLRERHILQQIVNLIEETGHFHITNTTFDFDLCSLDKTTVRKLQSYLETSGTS
# E coli growth: E. coli growth inhibition, primary screen, OD600. Escherichia coli growth, 23 h; stronger effect = lower value. OD600 absorbance (no concentration beside the values). 0.21% of 330,000 active. AID 1053175, 2014;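 active means OD600 absorbance below the run mean of sample wells minus 3.6 SD, in any replicate, cut at about 0.56 in these data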;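 further: stock transfer was 300 nL into about 60 µL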
# Numbers without * were called inactive; i = inactive; ? = inconclusive; nt = not tested or not shown; & = joins results of further samples. A portion of the library. The share of hits here may be higher or lower than overall.
SMILES,Vif A3G,FGF22 binding,UCH37 DUB inh,HNF4A DNA FP,RanGTP-Imp inh,MLL AF4-AF9 inh,E coli growth
O=C(/C=C1\NCC2c3ccccc3CCN2C1=O)c1ccccc1 (stereo not given),-5.2%,nt,3.6,-4.0,6.3,nt,0.724
CCC1C(=O)N=C(SCC(=O)Nc2nc3ccccc3s2)NC1=O (stereo not given),5.8%,i,8.7,-3.1,14.1,-0.3,0.661
CCOC(=O)NC(Cc1c[nH]c2ccccc12)C(=O)NCCc1ccc(S(N)(=O)=O)cc1 (stereo not given),-3.0%,i,-0.1,-0.7,-2.0,-1.1,0.696
CCN(C)C1CN(Cc2cn(CCCC(=O)OC)nn2)S(=O)(=O)C1 (stereo not given),nt,i,nt,-4.5,nt,-1.9,nt
CCCCn1c(SCC(=O)NC2CCCC2)nc2ccccc2c1=O,-21.3%,i,2.8,3.9,0.1,-0.1,0.719
COc1ccc(F)cc1S(=O)(=O)N1CCCC(C)C1 (stereo not given),-6.1%,nt,0.5,1.9,0.4,nt,0.623
CS(=O)(=O)c1ccc(C(=O)NCc2ccc(F)cc2)cc1,-6.9%,i,-0.7,1.5,-0.7,-1.5,0.681
COc1ccccc1NC(=O)C(=O)NCCC1CCCCN1S(=O)(=O)c1ccccc1 (stereo not given),-7.2%,i,0.5,4.3,5.0,0.0,0.659
CC(C)(C)c1nn2cnnc2n(/N=C/c2cccc3ccccc23)c1=O,nt,i,nt,4.4,0.6,8.9,nt
C[C@H](NC(=O)OC(C)(C)C)C(=O)NCC1CCC(C(=O)N[C@@H](Cc2ccccc2)C(=O)O)CC1 (stereo not given in full),nt,i,4.6,-1.9,5.1,0.9,0.677
COc1cccc(CC(=O)OCC(=O)NNC(=O)c2ccc([N+](=O)[O-])cc2)c1,-3.0%,i,6.3,0.7,?,-1.7,0.718
CCN(c1ccc(OCC(=O)OCC(=O)Nc2ccc(F)c(F)c2F)cc1)S(=O)(=O)c1ccccc1,nt,nt,3.0,0.5,nt,nt,0.683
COc1cccc(NC(=O)CNC(=O)[C@@H]2Cc3ccccc3CN2C(=O)OC(C)(C)C)c1,nt,i,2.5,0.1,5.9,-0.2,0.644
c1ccc(NCc2cccnc2)cc1,14.7%,nt,-2.7,-0.5,nt,nt,0.715
COCCn1c(C)cc(C(=O)CN2c3cccc4cccc(c34)S2(=O)=O)c1C,-4.1%,i,-31.6,-3.8,nt,-0.2,0.642
Cc1cc2ccccn2c1C(=O)c1ccc(N/N=C/c2ccc(C(=O)O)cc2)c([N+](=O)[O-])c1,15.8%,i,nt,-75.2,nt,5.7,nt
CCOC(=O)C1CCN(S(=O)(=O)c2ccc3c(c2)CC(=O)N3)CC1,nt,i,0.7,-1.7,0.9,11.5,0.779
CCOc1ccc(NC(=O)CN(C)C(=O)c2cn(-c3ccc(F)cc3)nc2-c2cccc(OC)c2)cc1OCC,-5.3%,nt,3.5,2.5,nt,0.2,0.633
CCOc1ccc(C(c2c(NC(=O)c3ccccc3)sc(C)c2C)N2CCN(C)CC2)cc1 (stereo not given),nt,i,-7.1,5.3,-0.8,17.3,0.671
O=C(NCCCCc1ccccc1)c1ccccc1Br,nt,i,2.7,-1.8,-0.3,1.5,0.647
CC(c1ccccc1)N1C(=O)NC(NC(=O)c2cccnc2)(C(F)(F)F)C1=O (stereo not given),9.5%,nt,4.2,3.8,-2.3,nt,0.73
CCOC(=O)C1CCCN(c2nc(C)nc3c2oc2ccccc23)C1 (stereo not given),1.1%,nt,-0.4,-2.2,0.7,nt,0.689
COc1cccc(CNc2nc3cc(-c4ccccc4)sc3c(=O)n2C)c1OC,nt,i,nt,1.1,nt,2.9,nt
O=[N+]([O-])c1c(Nc2ccc(Br)cc2)ccc2nonc12,-0.5%,i,-0.4,6.5,-1.7,1.9,0.651
CC(=O)c1cccc(-n2c(CCC(=O)O)ccc2-c2cccs2)c1,19.8%,nt,3.0,1.3,-6.9,nt,0.616
COc1cc(C(=O)N2CCN(c3ccccc3OC)CC2)c([N+](=O)[O-])cc1OC,2.3%,i,5.0,0.3,-1.7,0.4,0.723
O=C(CN1C(=O)COc2ccc(Cl)cc21)N1CCc2ccccc21,-0.1%,nt,2.3,3.9,0.8,nt,0.715
O=C(NCc1nnnn1-c1ccc(F)cc1)c1ccc2c(c1)OCO2,-8.4%,i,nt,1.5,nt,-1.7,nt
CCOC(=O)Nc1ccc(S(=O)(=O)Nc2cc(C)on2)cc1,2.1%,nt,-0.7,-1.1,3.2,nt,0.718
CC1CN(C2CCCCC2)C(=S)NC1=O (stereo not given),-4.9%,i,3.6,-1.6,nt,-1.1,0.703
CN1CCN(c2nc3c(c(=O)[nH]c(=O)n3C)n2Cc2cccc3ccccc23)CC1,2.3%,nt,3.5,2.1,0.0,nt,0.718
O=C(C[C@H]1C/C=C\CC[C@H](Cc2ccc(F)cc2)C(=O)OC[C@H]2CCCN2C1=O)N[C@H](CO)Cc1ccccc1,-1.6%,i,0.7,1.2,nt,-0.2,0.702
COc1cc(/C=N/n2cnnc2)ccc1OCCOc1ccccc1,22.9%,nt,nt,-0.6,-3.7,nt,nt
CCN(CC)c1ccc(C2NC(=O)NC(C)=C2C(=O)Nc2ccccc2)cc1 (stereo not given),84.4µM*,nt,6.3,4.0,-5.4,nt,0.681
CCOc1ccc(Cn2nnc(C(=O)Nc3cc(OC)cc(OC)c3)c2N)cc1,-5.6%,i,-3.3,4.8,0.0,-0.6,0.771
CCc1sc(C(=O)Nc2ccc(N3CCOCC3)cc2)cc1C,-4.3%,i,6.6,11.0,nt,11.9,0.655
CC1CN(c2nc(-c3ccc(Br)cc3)nnc2-c2ccccc2)CC(C)N1 (stereo not given),-1.5%,nt,7.7,-0.4,-0.5,nt,0.712
CCCCN=c1scc(-c2ccc3c(c2)NC(=O)CO3)n1N=C1CCCC1,3.2%,i,4.3,10.2,?,20.2,0.652
Cc1cccc(CN2CCN(Cc3ccco3)CC2)c1,-3.6%,i,1.1,-2.3,3.9,-3.6,0.671
O=C1SC(c2ccccc2)=N/C1=C/c1ccco1,?,nt,2.5,-0.1,-0.4,nt,0.736
O=C(N/N=C/c1cccc(Oc2ccccc2)c1)c1ccccc1Br,1.4%,i,nt,1.7,5.1,4.8,nt
CCOC(=O)C(C(C)=O)c1c(Br)c(O)c(O)c2c(C(=O)c3ccc(C)cc3)coc12 (stereo not given),?,nt,2.9,-3.4,0.8,nt,0.609
C[C@H](CO)N1C[C@H](C)[C@@H](CN(C)S(=O)(=O)c2ccccc2F)Oc2ncc(C#Cc3cccnc3)cc2C1=O,3.8%,i,nt,-0.8,nt,-0.1&0.5&-1.0,nt
C=CC[n+]1c(-c2ccc(C)cc2)csc1Nc1ccc(NC(C)=O)cc1,-9.4%,i,0.8,-3.4,-0.6,19.4,0.709
NS(=O)(=O)c1cccc(NC(=O)CC23CC4CC(C2)CC(CC(=O)Nc2cccc(S(N)(=O)=O)c2)(C4)C3)c1,-3.0%,i,1.7,-2.4,-0.5,-1.8,0.646

# A few values from the results shown:
# CN1CCN(c2nc3c(c(=O)[nH]c(=O)n3C)n2Cc2cccc3ccccc23)CC1 | Vif A3G = 2.3%
# O=C1SC(c2ccccc2)=N/C1=C/c1ccco1 | UCH37 DUB inh = 2.5

# Following part
SMILES,Vif A3G,FGF22 binding,UCH37 DUB inh,HNF4A DNA FP,RanGTP-Imp inh,MLL AF4-AF9 inh,E coli growth
CCCCOc1ccc(C2=CSC3=NCCN23)cc1[N+](=O)[O-],5.4%,i,5.1,-2.3,-9.2,15.9,0.61
O=C(CSc1nccn1-c1ccc(F)cc1)Nc1ccc2c(c1)OCO2,-1.7%,nt,2.5,0.9,1.0,nt,0.749
COc1ccc(NC2=Nc3cccc4cccc2c34)cc1,2.0%,nt,6.0,14.9,1.7,nt,0.577
O=C(Cc1ccccc1)N1CCN(S(=O)(=O)c2cccc([N+](=O)[O-])c2)CC1,-0.3%,i,1.5,-2.0,-2.1,1.3,0.635
Cc1[nH]c2ccccc2c1C(=O)/C=C\c1ccccc1Cl,nt,nt,1.6,-0.6,0.3,nt,0.648
CCc1nnc(NC(=O)CSc2ccc(-c3ccc(C)cc3)nn2)s1,-1.7%,i,-1.4,5.4,4.3,-0.5,0.736
CNC(=O)c1ccsc1NC(=O)CS(=O)(=O)c1ccc(Cl)cc1,-0.3%,i,6.2,-0.8,-0.5,-0.5,0.682
COc1ccc(CNC(=O)CCc2c(C)nc3cc(-c4ccccc4OC)nn3c2C)cc1,27.8%,i,-25.1,-2.4,11.0,0.2,0.65
CCOC(=O)c1c(-c2ccc(C)o2)csc1NC(=O)CN1CCN(CC)CC1,-2.6%&-10.7%,nt,3.8,4.3,2.5,nt,0.67
CC(C)(C)n1nnnc1C(c1cccs1)N1CCN(C/C=C/c2ccccc2)CC1 (stereo not given),nt,i,nt,-1.7,nt,9.5,nt
CCCSc1nnc2[nH]c(=O)cc(N)n12,-0.7%&24.8%,nt,2.5,-0.6,3.7,nt,0.681
CN(C)CCCNCC(=O)NN(c1ccccc1)c1ccccc1,nt,nt,1.6,nt,9.1,?,0.699
Cc1ccccc1NS(=O)(=O)c1ccc(-c2ccc(=O)[nH]n2)o1,-47.4%,i,2.8,6.8,-1.5,-0.9,0.638
CC(C)c1nc2oc3c(=O)[nH]cnc3c2c2c1COC(C)(C)C2,16.3%,i,1.1,-1.4,3.6,-0.8,0.723
N=c1n(CCN2CCCCC2)c2ccccc2n1CC(=O)c1cccs1,-12.0%,i,0.1,2.4,5.2,13.0,0.659
Cc1cc(Br)c(NC(=O)COC(=O)CC2CC3CCC2C3)c(Br)c1 (stereo not given),-1.5%,i,3.4,-2.8,nt,0.8,0.696
O=C(OCCN1C(=O)c2cccc3c(N4CCOCC4)ccc(c23)C1=O)c1ccc(Cl)cc1Cl,nt,nt,-15.3,-37.4,-498.8,nt,0.698
CCC/C=C/c1ccc(CN2C(CC(C)C)C(=O)N(Cc3cn(CCC4OCCO4)nn3)CCS2(=O)=O)cc1 (stereo not given),0.3%,i,nt,-0.3,nt,3.0,nt
CCOC(=O)c1ccc(NC(=O)CSc2nnc(CNC(=O)c3ccccc3F)o2)cc1,0.5%,nt,-2.5,0.8,1.8,nt,0.719
CC(C)N(C)c1ncnc2c1ncn2[C@H]1CN(Cc2cccs2)C[C@@H](CO)O1,nt,i,nt,3.6,nt,-2.2,nt
O=C1C=Cc2cccc3ccc(O)c1c23,-10.7%,i,-84.0,-7.1,nt,5.9,0.636
CCOC(=O)C1CCCN(Cc2ccc(OCc3ccccc3)cc2)C1 (stereo not given),-9.4%,i,2.5,1.5,4.1,1.4,0.622
Cc1cccc(OCC(=O)Nc2ccc(CN3CCOCC3)cc2)c1C,nt,i,4.9,3.5,?,2.9,0.665
COc1ccc(CC(=O)NC(C)c2nnc(SCC(=O)c3ccc(Br)cc3)n2C)cc1 (stereo not given),8.6%,nt,1.8,-0.4,2.7,nt,0.662
Cc1cc(Cl)ccc1OCCCC(=O)OCC(N)=O,-8.1%,i,0.9,-2.3,3.6,-3.7,0.691
CN(C)c1cccc(C(=O)N(Cc2ccccc2)Cc2ccccc2)c1,nt,i,-16.4,1.7,4.7,-1.2,0.741

# Screens as filed in PubChem.
